CtBP-E1A blk: blocks the CtBP interaction with E1A; AlphaScreen GST-E1A/His-CtBP binding, 1536-well; active compounds read low; control for the full effect not named in the record; 0.49% of 340,000 active; activity change, % (no concentration beside the values); AID 651724; in the data active means activity change below about -65%; inconclusive means about -30% to -65%; inactive means above about -30%; further: on the % scale 0 is the no-effect control and ±100 the full control effect
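Steps: dispense buffer (Tris pH 8.0, NaCl 300 mM, TCEP 1 mM, BSA, Tween 20); add 5X protein mix (GST-E1A, His-CtBP, 125 nM each); pin 23 nL compound; 2 h at 37 °C, dark; add 5X beads (50 ug/mL); 1 h; read.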
gsp antagonist: gsp mutant antagonism; Potency, µM (titrated, usually from 76.9 µM), for inactives: top-dose activity change, negative = inhibition, hits mostly inhibitors; 0.4% of 340,000 active; gsp-mutant cells, cAMP HTRF, 30 min; control for the full effect not named in the record; active = falling curve of any shape with a large fitted effect; inconclusive = falling curve, mostly with a smaller effect; inactive = flat or rising curve; cell line not stated here;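 further: intracellular cAMP measured with PDE inhibitor Ro 20-1724 present during compound exposure; potency means the concentration at half of the fitted maximal effect; on the % scale 0 is the no-effect control and ±100 the full control effect; nearly all actives have a fitted effect of over 65% in size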
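Cells, 2000/well, grown 16–24 h in DMEM 10% FBS with 0.5 mg/ml G418, then compounds plus […] (300 uM addition stock), 30 min at 37C. cAMP read by HTRF (cAMP-d2 and anti-cAMP antibody-K in lysis buffer) after 30 min RT.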
Six1-Eya2 blk: Six1/Eya2 interaction inhibition; AID 651725; 0.56% of 360,000 active; AlphaScreen GST-Six1/His-Eya2 binding, biochemical; active compounds read low; control for the full effect not named in the record; activity change, % (no concentration beside the values); in the data active = activity change below about -65%; inconclusive = about -30% to -65%; inactive = above about -30%; further: on the % scale 0 is the no-effect control and ±100 the full control effect
Target sequence (O00167 whole entry, looked up): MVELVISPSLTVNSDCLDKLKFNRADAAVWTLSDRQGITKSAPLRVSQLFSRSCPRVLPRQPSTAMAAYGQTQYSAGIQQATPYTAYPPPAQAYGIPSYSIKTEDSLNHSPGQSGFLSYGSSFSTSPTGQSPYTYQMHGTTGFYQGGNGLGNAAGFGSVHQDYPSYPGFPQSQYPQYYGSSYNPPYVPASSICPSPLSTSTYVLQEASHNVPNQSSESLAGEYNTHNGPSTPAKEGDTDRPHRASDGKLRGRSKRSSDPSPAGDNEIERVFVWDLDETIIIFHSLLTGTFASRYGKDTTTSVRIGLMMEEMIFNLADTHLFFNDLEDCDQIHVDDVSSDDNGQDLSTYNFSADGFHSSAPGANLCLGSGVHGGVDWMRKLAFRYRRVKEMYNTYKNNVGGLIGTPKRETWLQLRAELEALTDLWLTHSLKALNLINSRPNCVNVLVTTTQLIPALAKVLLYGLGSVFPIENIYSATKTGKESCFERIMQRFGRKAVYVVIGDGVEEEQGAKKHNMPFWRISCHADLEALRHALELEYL
Target sequence (Q15475 whole entry, looked up): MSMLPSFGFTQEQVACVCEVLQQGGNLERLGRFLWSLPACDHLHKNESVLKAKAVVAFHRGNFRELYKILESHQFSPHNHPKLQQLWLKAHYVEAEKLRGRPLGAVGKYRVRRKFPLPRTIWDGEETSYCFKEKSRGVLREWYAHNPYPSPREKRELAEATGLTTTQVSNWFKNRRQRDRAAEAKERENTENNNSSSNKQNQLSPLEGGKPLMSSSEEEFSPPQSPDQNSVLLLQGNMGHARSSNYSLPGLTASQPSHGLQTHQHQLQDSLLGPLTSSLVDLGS
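Compounds are tested against tagged Six1 and Eya2 proteins bridged by glutathione donor and nickel acceptor beads; after a one-hour incubation at 37 °C without light, AlphaScreen emission is recorded.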
D2 ag: activates the human D2 dopamine receptor; P14416; DiscoveRx PathHunter D2 beta-arrestin, luminescence, 90 min; 100% = 57 uM dopamine signal; activation, % (concentration not given with the values); 0.084% of 360,000 active; in the data active = activation above about 40%; inconclusive = about 15% to 40%; inactive = below about 15%; further: compound concentration not given in the record; the text of the record calls up to 30% inactive
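Agonist mode: compounds alone added to overnight-plated D2 PathHunter cells for 90 min at 37 C, with 57 uM final dopamine (EC100) defining full response. Beta-arrestin recruitment detected by chemiluminescent reagent, read after 1 h at ambient temperature.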
gsp ag: activates gsp, the McCune-Albright syndrome mutation; Potency, µM (top dose mostly 76.9 µM), inactives show top-dose activation (cAMP increase), usual class: activators; 0.13% of 340,000 active; AID 624287; gsp mutant cells, cAMP HTRF, 30 min; control for the full effect not named in the record; active = well fitted activation curve with a large enough effect; inconclusive = small, poorly fitted or top-dose-only effect, or another doubt; inactive = no such curve, though single readings can be large or run the other way; cell line not stated here;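 further: phosphodiesterase inhibitor Ro 20-1724 added with compounds to block cAMP breakdown; potency means the concentration at half of the fitted maximal effect; nearly all actives have a fitted effect of over 60% in size; about a fifth of the inactives were tested at one dose only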
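Cells in DMEM/10% FBS with G418 were pretreated with compounds in DMSO plus […] (300 uM stock) for 30 min at 37C. cAMP was measured by HTRF (cAMP-d2 plus anti-cAMP antibody-K) after 30 min at room temperature.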
D2 potentiator: positive allosteric modulators of human D2 dopamine receptor; potentiation, % (concentration not given with the values); P14416; AID 624464; DiscoveRx D2 beta-arrestin cells, luminescence, 90 min; 100% = 57 uM dopamine signal; 0.23% of 360,000 active; active = potentiation of 50% or more; inconclusive = 30% to 50%; inactive = 30% or less;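 further: compound concentration not given in the record; tested on top of an EC20 dose of dopamine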
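PathHunter beta-arrestin assay in DiscoveRx D2 cells. Compounds were added with an EC20 of dopamine (50 nM final) for 90 min at 37 deg C. Luminescence was read 1 h after detection reagent, with 57 uM dopamine as the EC100 control.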
* = called active by the depositor; [ ] = remark or other dose.

What do the screens show for `Cc1cccc(NC(=O)CN2C(=O)NC3(CCCC3)C2=O)n1`?
CtBP-E1A blk: 10; gsp antagonist: 4%; Six1-Eya2 blk: 5; D2 ag: 1.7; gsp ag: -7%[15.4 µM]; D2 potentiator: -66

How did Cc1ccc(C)c(OCCC(=O)OCC(=O)NCCc2ccc(S(N)(=O)=O)cc2)c1 do in these assays?
CtBP-E1A blk: 7; gsp antagonist: 1%; Six1-Eya2 blk: 5; D2 ag: 3.8; gsp ag: 6%; D2 potentiator: 15

Results for COc1ccc(S(=O)(=O)N2CCN(C)CC2)cc1 ?
CtBP-E1A blk: 2; gsp antagonist: -5%; Six1-Eya2 blk: 5; D2 ag: -1.9; gsp ag: 12%; D2 potentiator: -3

What do the screens show for `COc1ccc(NC(=O)COC(=O)c2ccc(S(=O)(=O)N(C)c3ccccc3OC)cc2)cc1`?
CtBP-E1A blk: 0; gsp antagonist: inconclusive; Six1-Eya2 blk: 11; D2 ag: 9.3; gsp ag: -32%[inhibitor]; D2 potentiator: -1

Results for C[C@@H]1C=C[C@](Cc2ccccc2)(C(=O)O)N1C(=O)c1ccccc1 ?
CtBP-E1A blk: -13; gsp antagonist: 6%; Six1-Eya2 blk: -11; D2 ag: -3.1; D2 potentiator: -10

Results for S=C1NCCOCCOCCOCCOCCNC(=S)NCCOCCOCCOCCOCCN1 ?
CtBP-E1A blk: 2; gsp antagonist: 3%; Six1-Eya2 blk: 4; D2 ag: -1.2; gsp ag: 16%; D2 potentiator: -1

What do the screens show for `COc1ccccc1NC(=S)N(CCCN(C)C)Cc1cc2cc3c(cc2[nH]c1=O)OCO3`?
CtBP-E1A blk: -24; gsp antagonist: 12%; Six1-Eya2 blk: 2; D2 ag: -4.2; gsp ag: -16%[15.4 µM]; D2 potentiator: -3

What do the screens show for `Cc1ccc(NC(=O)CCC(=O)N2CCN(S(=O)(=O)c3ccc(C)cc3)CC2)cc1`?
CtBP-E1A blk: -2; gsp antagonist: -3%; Six1-Eya2 blk: 1; D2 ag: -0.1; gsp ag: 4%; D2 potentiator: -1

How did NC(c1csc(Nc2cnccn2)n1)c1ccccc1Cl (centres undefined) do in these assays?
CtBP-E1A blk: -76*; Six1-Eya2 blk: -67*; D2 ag: -5.2; D2 potentiator: -4

Results for CCc1ccc(C#CC2=CC(=O)CC(C)(C)C2)cc1 ?
CtBP-E1A blk: -21; Six1-Eya2 blk: 1; D2 ag: -4.1; gsp ag: 20%

Results for O=C(N/N=C/c1cccs1)c1n[nH]c2c1CCCC2 ?
CtBP-E1A blk: 10; gsp antagonist: 2%; Six1-Eya2 blk: -6; D2 ag: -1.7; gsp ag: -2%[15.4 µM]; D2 potentiator: -4

What do the screens show for `COc1ccc(Cn2c(C)nc3c(c(=O)c4ccccc4n3C)c2=O)cc1`?
CtBP-E1A blk: -12; gsp antagonist: 6%; Six1-Eya2 blk: -14; D2 ag: 0.4; gsp ag: -5%[15.4 µM]; D2 potentiator: -2

Results for O=C(NCc1ccco1)C1(c2ccc(Cl)cc2)CCCC1 ?
CtBP-E1A blk: 2; gsp antagonist: 11%; Six1-Eya2 blk: 1; D2 ag: -1.3; gsp ag: 4%; D2 potentiator: -4

Results for Cc1cc(N2C(=O)C(=O)/C(=C(/O)c3ccc(F)cc3)C2c2ccc(Cl)cc2)no1 (centres undefined) ?
CtBP-E1A blk: 2; gsp antagonist: -32%; Six1-Eya2 blk: -3; D2 ag: -1.0; gsp ag: 10%; D2 potentiator: 3

How did CC(C)(C(=O)N1CCC1(C)C(=O)NS(=O)(=O)c1ccc(Br)cc1)c1ccccc1 (centres undefined) do in these assays?
CtBP-E1A blk: 10; Six1-Eya2 blk: 1; D2 ag: -2.0; D2 potentiator: 1

What do the screens show for `O=S(=O)(c1ccc(NC(=S)N/N=C/c2ccc(O)c(O)c2)cc1)N1CCOCC1`?
CtBP-E1A blk: -27; gsp antagonist: 3%; Six1-Eya2 blk: -13; D2 ag: 3.4; gsp ag: -14%[15.4 µM]; D2 potentiator: -3

How did CCC(=O)Nc1nnc(CCc2ccccc2)s1 do in these assays?
CtBP-E1A blk: 5; gsp antagonist: 10%; Six1-Eya2 blk: -1; D2 ag: -0.1; gsp ag: 5%; D2 potentiator: -5

What do the screens show for `Cc1ccc(S(=O)(=O)CCC(=O)OCC(=O)N2c3ccccc3NC(=O)C2(C)C)cc1`?
CtBP-E1A blk: 7; gsp antagonist: 8%; Six1-Eya2 blk: 0; D2 ag: -3.4; gsp ag: -3%; D2 potentiator: -15

How did COc1ccc(-n2c(SCC(=O)Nc3ccc(Br)cc3)nc(O)cc2=O)cc1 do in these assays?
CtBP-E1A blk: 10; gsp antagonist: -15%; Six1-Eya2 blk: -1; D2 ag: -2.6; gsp ag: -9%[15.4 µM]; D2 potentiator: -5

Results for Cc1ccc(C(=O)NCc2nnc3c(C(F)(F)F)cc(Cl)cn23)o1 ?
CtBP-E1A blk: 4; gsp antagonist: 25%; Six1-Eya2 blk: -1; D2 ag: 3.0; gsp ag: inconclusive; D2 potentiator: -9

What do the screens show for `Cc1ccc2nc(SCC(=O)N3CCN(c4ccccc4)CC3)[nH]c2c1`?
CtBP-E1A blk: -5; gsp antagonist: -5%; Six1-Eya2 blk: -3; D2 ag: -0.7; gsp ag: -3%[15.4 µM]; D2 potentiator: -13

What do the screens show for `Cc1onc(-c2ccccc2Cl)c1C(=O)NC(=S)NCc1cccnc1`?
CtBP-E1A blk: 1; gsp antagonist: -10%; Six1-Eya2 blk: 3; D2 ag: -5.2; gsp ag: 12%; D2 potentiator: -8

Results for COCOc1ccc(/C=C/C(=O)c2c(OCOC)cc(OCOC)c(CC=C(C)C)c2O)cc1OCOC ?
CtBP-E1A blk: 0; gsp antagonist: -2%; Six1-Eya2 blk: -2; D2 ag: -2.8; D2 potentiator: -5

What do the screens show for `CSc1nc2c(c(=O)n1C)SC(C)C2` (centres undefined)?
CtBP-E1A blk: -1; gsp antagonist: 1%; Six1-Eya2 blk: -2; D2 ag: -2.0; gsp ag: -43%[inhibitor]; D2 potentiator: -3

Results for O=C1c2ccccc2-c2cccc(NS(=O)(=O)c3ccc(C(F)(F)F)cc3)c21 ?
CtBP-E1A blk: -16; gsp antagonist: -19%; Six1-Eya2 blk: -18; D2 ag: -2.3; gsp ag: -21%; D2 potentiator: -9

How did Cc1ccc(OCC(=O)Nc2ccccc2C(=O)N2CCCC2)cc1 do in these assays?
CtBP-E1A blk: 13; gsp antagonist: -14%; Six1-Eya2 blk: 5; D2 ag: -7.2; gsp ag: 3%; D2 potentiator: -18

How did CC1(C)Cc2nc3[nH]c(=S)n(-c4ccccc4)c(=O)c3cc2CO1 do in these assays?
CtBP-E1A blk: 3; gsp antagonist: -1%; Six1-Eya2 blk: 4; D2 ag: -1.2; gsp ag: -1%; D2 potentiator: -8

What do the screens show for `Cc1cccc(C)c1NC(=O)c1sccc1SCc1cccc(C(F)(F)F)c1`?
CtBP-E1A blk: 9; gsp antagonist: inconclusive; Six1-Eya2 blk: 14; D2 ag: 2.0; gsp ag: -7%; D2 potentiator: -7

How did CCOc1cc(/C=C2/C(=N)N3OC(C)=CC3=NC2=O)ccc1OC do in these assays?
CtBP-E1A blk: 2; gsp antagonist: -3%; Six1-Eya2 blk: -3; D2 ag: 6.0; gsp ag: -23%; D2 potentiator: -2

Results for COc1ccc(C)cc1NC(=O)Nc1ccccc1 ?
CtBP-E1A blk: -2; gsp antagonist: inconclusive; Six1-Eya2 blk: -12; D2 ag: -6.1; gsp ag: -24%; D2 potentiator: -12

Results for COCCNCc1ccc(Cl)cc1Cl ?
CtBP-E1A blk: -10; gsp antagonist: 12%; Six1-Eya2 blk: -1; D2 ag: 0.9; gsp ag: -50%[inhibitor]; D2 potentiator: -6

How did CC1=C(C(=O)OCc2ccccc2)C(c2ccccc2[N+](=O)[O-])NC(=O)N1C (centres undefined) do in these assays?
gsp antagonist: -14%; Six1-Eya2 blk: 1; D2 ag: 6.5; gsp ag: -30%[inhibitor]; D2 potentiator: 8

What do the screens show for `CCOC(=O)c1ccc(N2C(=O)c3n[nH]c(C)c3C2c2ccc(OC)cc2)cc1` (centres undefined)?
CtBP-E1A blk: -8; gsp antagonist: -7%; Six1-Eya2 blk: -8; D2 ag: -4.9; gsp ag: 4%; D2 potentiator: -20

Results for COc1ccccc1OCCN(C#N)c1nc(N(C)C)nc(N(C)C)n1 ?
CtBP-E1A blk: 0; gsp antagonist: -14%; Six1-Eya2 blk: -2; D2 ag: 9.4; gsp ag: 15%; D2 potentiator: -18

How did N/C(=N\OC(=O)Oc1ccccc1)c1ccc([N+](=O)[O-])cc1 do in these assays?
CtBP-E1A blk: 5; gsp antagonist: 1%; Six1-Eya2 blk: 4; D2 ag: -5.9; gsp ag: 14%; D2 potentiator: 14

Results for CCOc1ccccc1OCCC(=O)OCC(=O)Nc1c(C)nn(-c2ccccc2)c1C ?
CtBP-E1A blk: 8; gsp antagonist: 7%; Six1-Eya2 blk: 0; D2 ag: 1.9; gsp ag: -27%; D2 potentiator: 16

How did Cc1ccc(NC(=O)Cn2c(O)c(N=NC(N)=S)c3ccccc32)cc1 do in these assays?
CtBP-E1A blk: -1; gsp antagonist: -3%; Six1-Eya2 blk: 7; D2 ag: 2.3; gsp ag: 21%[15.4 µM]; D2 potentiator: -1

What do the screens show for `COCCNC(=O)CN(C(=O)c1ccc(N2CCCC2)nc1)c1ccc(Cl)cc1`?
CtBP-E1A blk: -12; gsp antagonist: 1%; Six1-Eya2 blk: -1; D2 ag: -4.4; gsp ag: 17%; D2 potentiator: -2

How did N#Cc1ccccc1NC(=O)CN1CCOCC1 do in these assays?
gsp antagonist: -1%; Six1-Eya2 blk: 3; D2 ag: -0.8; gsp ag: -6%; D2 potentiator: -16
